H5N1 antiviral = MDCK cell protection from H5N1 avian flu; actives 0.07% (n = 96,000); inhibition, % at 50 µM; cytopathic effect, luminescence, 72 h; active compounds read high; no value below 0 was filed and about half of the inactive calls have no number; reference of the scale not given here; AID 740, 2007; in the data active = inhibition above about 25%
Numbers without * were called inactive; i = inactive.

Preview (18 entries):
SMILES	H5N1 antiviral
COc1ccc(CCN/C=C2/CC(=O)NC2=O)cc1OC	i
CCCCCCCCCCS(=O)(=O)N/N=C/c1ccc([N+](=O)[O-])cc1	i
COc1ccc(-n2c(=O)[nH]cc(C(=O)N3CCc4ccccc43)c2=O)cc1	i
COc1ccccc1C(=O)Nc1nc2ccc(S(C)(=O)=O)cc2s1	i
CCC(C)Nc1nc2c(c(=O)n(C)c(=O)n2C)n1Cc1cccc(C)c1 (configuration not stated)	2.0
CCOC(=O)c1[nH]c2cc(OC)c(OC)cc2c1NC(=O)C(C)N1CCN(Cc2ccccc2)CC1 (configuration not stated)	i
CCCCN(C)C1=Nc2cccc3cccc1c23	i
Cc1nnc(Sc2cc(C(=O)NCc3ccco3)c3ccccc3n2)s1	i
CCOc1nc(SC(C(C)=O)C(=O)Nc2ccccc2)nc(N(C)C)n1 (configuration not stated)	0.2
Cn1c(=O)c2c(n(C)c1=O)=NC1(CCCCC1)ON=2	i
COC(=O)COc1ccc(S(=O)(=O)N2CCc3ccccc3C2)cc1	0.5
COc1cccc(/C=N/NC(=O)CC2C(=O)NN=C2C)c1OC (configuration not stated)	i
Cc1ccc(NC(=O)c2cc(C)nn2-c2ccccc2)cc1	0.4
Cc1onc(-c2ccccc2Cl)c1C(=O)Nc1ccccc1C(=O)NC(C)C	2.6
CCOc1cc(C2C3=C(CCCC3=O)Nc3nc(C(=O)OC)nn32)ccc1OC (configuration not stated)	i
CN(C)C(CNC(=O)CSc1nnc(-c2ccco2)o1)c1ccccc1 (configuration not stated)	i
O=C(c1cc2nc(-c3ccco3)cc(C(F)(F)F)n2n1)N1CCCc2ccccc21	2.9
CCCc1cc(C(=O)NCCc2ccc(OC)c(OC)c2)no1	i

Results, from the first entry:
SMILES	H5N1 antiviral
COc1ccc(CCN/C=C2/CC(=O)NC2=O)cc1OC	i
CCCCCCCCCCS(=O)(=O)N/N=C/c1ccc([N+](=O)[O-])cc1	i
COc1ccc(-n2c(=O)[nH]cc(C(=O)N3CCc4ccccc43)c2=O)cc1	i
COc1ccccc1C(=O)Nc1nc2ccc(S(C)(=O)=O)cc2s1	i
CCC(C)Nc1nc2c(c(=O)n(C)c(=O)n2C)n1Cc1cccc(C)c1 (configuration not stated)	2.0
CCOC(=O)c1[nH]c2cc(OC)c(OC)cc2c1NC(=O)C(C)N1CCN(Cc2ccccc2)CC1 (configuration not stated)	i
CCCCN(C)C1=Nc2cccc3cccc1c23	i
Cc1nnc(Sc2cc(C(=O)NCc3ccco3)c3ccccc3n2)s1	i
CCOc1nc(SC(C(C)=O)C(=O)Nc2ccccc2)nc(N(C)C)n1 (configuration not stated)	0.2
Cn1c(=O)c2c(n(C)c1=O)=NC1(CCCCC1)ON=2	i
COC(=O)COc1ccc(S(=O)(=O)N2CCc3ccccc3C2)cc1	0.5
COc1cccc(/C=N/NC(=O)CC2C(=O)NN=C2C)c1OC (configuration not stated)	i
Cc1ccc(NC(=O)c2cc(C)nn2-c2ccccc2)cc1	0.4
Cc1onc(-c2ccccc2Cl)c1C(=O)Nc1ccccc1C(=O)NC(C)C	2.6
CCOc1cc(C2C3=C(CCCC3=O)Nc3nc(C(=O)OC)nn32)ccc1OC (configuration not stated)	i
CN(C)C(CNC(=O)CSc1nnc(-c2ccco2)o1)c1ccccc1 (configuration not stated)	i
O=C(c1cc2nc(-c3ccco3)cc(C(F)(F)F)n2n1)N1CCCc2ccccc21	2.9
CCCc1cc(C(=O)NCCc2ccc(OC)c(OC)c2)no1	i
O=C(COC(=O)Cc1cn2ccsc2n1)Nc1nc2ccccc2s1	0.8
C=CCn1c(COc2ccccc2F)nnc1SCC(=O)N1CC(=O)Nc2ccccc21	i
COc1ccc(-c2nn(-c3ccccc3)cc2C(=O)N2CCOCC2)cc1	i
Cc1ccc(S(=O)(=O)C(C#N)c2nc3ccccc3nc2N2CCCC2)cc1 (configuration not stated)	0.8
CSc1ncccc1C(=O)OCC(=O)Nc1cc(C(F)(F)F)ccc1N1CCOCC1	i
O=C(Oc1cccc(NC(=O)c2ccco2)c1)c1cccc(S(=O)(=O)N2CCCCC2)c1	0.0
CCOc1ccccc1C(=O)Nc1nnc(C(C)C)s1	i
(cont.)
SMILES	H5N1 antiviral
O=C(OCc1nnc(-c2ccccc2)o1)c1cn(-c2ccccc2)nc1-c1ccccc1	0.2
Cc1cc(C)cc(NC(=O)C/C(N)=N/O)c1	i
Cc1cccc(C2N(c3nccs3)C(=O)C3CCCN32)c1 (configuration not stated)	i
O=S(=O)(Nc1ccccc1Cl)c1ccc(F)cc1	i
Cc1cccc2cc(CN(CCN3CCCC3)C(=O)NC3CCCCC3)c(=O)[nH]c12	0.1
CCOC(=O)Cn1nc(C)n(-c2ccc(C)cc2)c1=O	i
Cc1nn(-c2ccc(Cl)cc2)c(N)c1C(O)(CSc1nccn1C)C(F)(F)F (configuration not stated)	i
CC(C)Sc1nc2ccccc2n1CC(=O)NCc1ccc2c(c1)OCO2	i
O=S(=O)(/N=C(/Nc1cc(N2CCOCC2)ncn1)c1ccccc1)c1ccccc1	0.2
O=c1c2ccccc2nc(SCc2cccc(F)c2)n1Cc1ccco1	0.8
O=C(O)c1c[nH]c2cc(C(F)(F)F)ccc2c1=O	i
CN(C)c1ccc(NC(=O)c2sc(SCC(=O)Nc3nccs3)nc2N)cc1	1.2
Cc1ccc(-c2nnc(CSc3nnc(COc4ccccc4)n3-c3ccccc3)o2)cc1	0.7
CCN1CCN(CCCCOc2ccccc2F)CC1	i
Cc1ncc(CSc2nc3ccccc3[nH]2)c(N)n1	i
CC(NC(=O)Nc1ccc2c(c1)OCO2)C1CCCO1 (configuration not stated)	i
COCCNC(=O)CSc1nc2cc(OC)c(OC)cc2c(=O)n1CCC1=CCCCC1	0.2
CC1CCN2c3nc4ccccn4c(=O)c3CC3(C(=O)N(C)C(=O)N(C)C3=O)C2C1 (configuration not stated)	4.9
Cc1ccc(S(=O)(=O)N2CCC(C(=O)OCC(=O)N3CCc4ccccc43)CC2)cc1	0.8
Cn1c(=O)c2c(SCc3c(F)cccc3Cl)nc(CC(C)(C)C)nc2n(C)c1=O	3.5
CCCCC1CCC(C(=O)Nc2ccc(S(=O)(=O)Nc3nccs3)cc2)CC1 (configuration not stated)	i
Cc1ccn2c(C(=O)N/N=C\c3cccs3)c(C)nc2c1	0.2
COc1ccc(OCC(=O)NN2Cc3ccccc3C2=N)cc1	0.8
O=C(NCCN1CCCCCC1)C1CC(=O)N(CCc2ccccc2)C1 (configuration not stated)	0.6
CCCCc1nc(SCC(=O)Nc2ncccn2)n[nH]1	i
Next results.
SMILES	H5N1 antiviral
O=C(CC1C(=O)NCCN1C(=O)Nc1ccccc1)Nc1ccc2c(c1)OCO2 (configuration not stated)	0.1
COc1ccc2c(c1)CC/C(=C\c1ccc(OC)c(Cn3nc(C)cc3C)c1)C2=O	i
CC1(C)Cc2ccccc2-c2nc3ccccc3c(=O)n21	1.9
O=S(=O)(Nc1nc(-c2sccc2Cl)cs1)c1cc(Cl)ccc1Cl	i
O=C(CN1CCN(c2ccc(F)cc2)CC1)Nc1ccc(F)c(F)c1	i
CC1(C)CC(=O)C=C(NC2CC(C)(C)NC(C)(C)C2)C1	i
Cc1cccnc1-n1c(-c2ccco2)nc2ccccc2c1=O	0.8
CC1(C)CC2(CCO1)CNC(=O)O2 (configuration not stated)	i
CCOC(=O)N1CCC(Nc2nc(OC)nc(OC)n2)CC1	i
O=C(NC1CCCC1)C1CCC(=O)N1C1CCCC1 (configuration not stated)	i
O=C(Nc1cc(C(F)(F)F)ccc1N1CCOCC1)c1cccnc1Cl	i
O=C(NCC1CC1)c1ccc(Nc2nc3ccc(Br)cc3[nH]2)cc1	i
COC(=O)C1CCN(C(c2ccc(OC)c(OC)c2)c2sc3nc(C)nn3c2O)CC1 (configuration not stated)	1.1
O=C(/C=N/O)Nc1ccccc1	i
Cc1ccc(C)c(NC(=O)CCc2ccc(S(=O)(=O)NC3CCCCC3)cc2)c1	i
COc1cc(OC)c(C2N(c3ccc(Cl)cc3)C(=O)C3CCCN32)cc1OC (configuration not stated)	i
N#Cc1ccc(Oc2nc(C(N)=O)cc(-c3ccccc3)n2)cc1	0.1
CCOC(=O)c1c(NC(=O)c2cccs2)sc(C(=O)N(C)C)c1C	i
Cc1ccsc1C(=O)NNC(=S)NCC(C)C	0.4
O=C(NCCC1=CCCCC1)c1cnccn1	i
CC(C)Cn1c(-c2nn(C)cc2Cl)n[nH]c1=S	0.1
O=C1Nc2ccccc2C12OCC1(CO2)COC2(OC1)C(=O)Nc1ccccc12 (configuration not stated)	i
O=c1c2ccccc2nc(-c2ccccc2)n1CCN1CCOCC1	0.0
O=c1sc2ccccc2n1COc1ccc(Cl)cc1	0.2
O=C(COC(=O)Cn1cnc2ccccc21)NCCc1ccccc1	i

Two of the compounds above, field by field.
Structure: O=C(NCCC1=CCCCC1)c1cnccn1
  H5N1 antiviral = i
Structure: CC(C)Cn1c(-c2nn(C)cc2Cl)n[nH]c1=S
  H5N1 antiviral = 0.1

(list continues)
SMILES	H5N1 antiviral
O=C(NCCCn1ccnc1)c1cn(-c2ccccc2)nc1-c1ccccc1	i
COc1ccc(-c2nn3cnnc3s2)cc1OC	i
C=CCOC(=O)C1=C(C)NC(SCC(=O)N(CC)CC)=C(C#N)C1c1ccco1 (configuration not stated)	i
COC(=O)Cc1c(C)nc2nc(Cc3ccccc3)[nH]n2c1=O	i
COC(=O)c1ccc(CSc2nc3c(cnn3-c3ccc(F)cc3)c(=O)[nH]2)o1	4.3
CCC(Sc1nc(C)cc(C)n1)C(=O)NC1=NN=C(c2ccc(C)cc2)CS1 (configuration not stated)	i
CCN1C(=O)c2ccc(C(=O)O)cc2C1=O	i
Cc1cccc(-c2nnn(CC/C(N)=N/O)n2)c1	i
Cc1cccc(NC(=O)Cn2cnc3ccc(S(=O)(=O)N4CCC(C)CC4)cc3c2=O)n1	i
Cc1c(-c2ccccc2)nc(N)c(C#N)c1-c1cccs1	0.9
CC(=O)N(/N=C1\Sc2ccccc2C1=O)c1ccccc1	i
CC(C)CCOCC1CC2(CC(C)(c3csc(N)n3)OC2=O)C(=O)O1 (configuration not stated)	i
COC(=O)CCS(=O)(=O)c1ccc(Cl)c(Cl)c1	i
O=C(O)c1c[nH]c(=S)n1-c1ccc(F)cc1	i
O=C(N1CCOCC1)N(Cc1ccco1)CC1CCCO1 (configuration not stated)	i
Cc1c(NC(=O)C(C)N2C(=O)c3ccccc3C2=O)c(=O)n(-c2ccccc2)n1C (configuration not stated)	i
COC(=O)c1[nH]c2cc(OC)ccc2c1NC(=O)CN1CCC(C(N)=O)CC1	i
COC(=O)C(Cc1ccc(O)cc1)NC(=O)CCC(=O)Nc1ccc(S(N)(=O)=O)cc1 (configuration not stated)	i
CCn1c(NC(=O)Nc2cccc(C)c2C)cc2sccc21	0.0
O=C(NC1CCCCC1)C1CCN(S(=O)(=O)N2CCOCC2)CC1	1.7
Cn1c(/C=N/c2nc3ccccc3[nH]2)nc2ccccc21	0.2
CCOc1ccccc1OCCOCCN1CC(C)OC(C)C1 (configuration not stated)	i
CCc1nnc(NC(=O)C2CCCN2C(=O)NC2CCCCC2)s1 (configuration not stated)	i
COc1ccc(C2CC(=O)c3cnc(NC(=O)c4cccc(OC)c4)nc3C2)cc1 (configuration not stated)	i
O=C(NNC(=O)C1CCCCC1)c1cnccn1	0.7
(next part)
SMILES	H5N1 antiviral
O=S(=O)(Nc1nc2ccccc2nc1NCCN1CCOCC1)c1cccc(Cl)c1	0.2
COc1ccc(C2(CNC(=O)Cc3ccc(OC)c(OC)c3)CCOCC2)cc1	2.3
Cc1onc(-c2ccccc2Cl)c1C(=O)OCn1nnc2ccccc2c1=O	0.5
CC(C)(C)C(=O)Cn1ncc(NC2CC2)c(Br)c1=O	i
COC(=O)c1c(C)oc2ccc(OC(=O)N3CCOCC3)cc12	i
O=C(CN1CCC(n2nnc3cc(F)ccc32)CC1)Nc1ccccc1N1CCOCC1	i
CCC(CC)C(=O)Nc1cc(NC(=O)C(CC)CC)cc(C(=O)O)c1	0.4
S=C(c1ccc(-c2cc(Cl)ccc2Cl)o1)N1CCOCC1	i
COc1ccc(C(=O)CN2CCOCC2)cc1F	0.2
COc1cccc(C(C(=O)NC2CCCCC2)N(C(=O)Cc2cccs2)c2ccc(-n3cnnn3)c(OC)c2)c1 (configuration not stated)	i
CCCn1nnc(NC(=O)c2ccc(OCC)c(Cl)c2)n1	1.0
CN(C)c1nc(N)nc(-c2ccco2)n1	12
C=C(C)CSc1nnc([C@@H](NC(=O)OC(C)(C)C)C(C)CC)o1 (some centres not stated)	0.7
CCC(Oc1ccccc1)C(=O)Nc1nnc(C(F)(F)F)s1 (configuration not stated)	i
CCOC(=O)c1cccc(Nc2nc(-c3cccnc3)nc3ccccc23)c1	i
CCC(OC(=O)c1ccco1)C(=O)NCc1ccc(C)cc1 (configuration not stated)	i
CCOC(=O)c1c(NC(=O)CSc2nnc(C)c(=O)[nH]2)sc2c1CCC2	0.8
CCOC(=O)c1cnc(SCC(=O)Nc2cc(OC)ccc2OC)nc1N	2.2
O=C(CN1CCC(O)(c2ccc3c(c2)OCO3)CC1)OC1CCCCC1	i
COc1ccc(C(C)(C)C)cc1NC(=O)c1cncc(Br)c1	i
Cc1cc(-n2nc(C)cc2C)nc(N)n1	1.2
CCn1c(CNC(=O)Cc2ccc(OC)cc2)nnc1SCCOc1ccccc1	0.1
O=C(CN1CCN(c2ccc(F)cc2)CC1)Nc1nnc(-c2ccccc2)s1	i
CS(=O)(=O)N(Cc1ccc(Cl)cc1)c1ccc(C(=O)N2CCN(c3ccccc3)CC2)cc1	i
O=c1[nH]c(CCl)nc2cc(-c3ccc(Cl)cc3)sc12	i
(listing goes on)
SMILES	H5N1 antiviral
CCOC(=O)c1cccc(NC(=O)CN(C)S(=O)(=O)c2cnc[nH]2)c1	0.1
COc1ccc(C(=O)C2CCCCC2=O)cc1 (configuration not stated)	0.0
CCN(CC)S(=O)(=O)c1cccc(C(=O)Nc2ccccc2)c1	1.7
Cc1sc2ncnc(N3CCN(CCOc4ccc(Cl)cc4)CC3)c2c1C	0.2
O=C(OCC(=O)N1CCc2ccccc21)c1cccnc1Cl	i
O=C1CN(C(=O)c2ccc(Br)o2)C(c2ccccc2)c2cc(Br)ccc2N1 (configuration not stated)	i
Cc1ccc(NC(=O)c2ccc(CSc3nnc(-c4ccncc4)n3C)cc2)c(C)c1	1.0

Assay outcomes: PubChem, SRMLSC

This is a subset; rates above refer to the full screens.
